TRPV1 potentiator = potentiators of human vanilloid receptor 1 (TRPV1); potentiation, % at 8.33 µM; actives 0.02% (n = 320,000); Q8NER1; AID 540277; TRPV1-expressing cells, Fluo-8 calcium influx, capsaicin EC20 potentiation; host cell line not named in the record; control for the full effect not named in the record; active means potentiation above 80%; inconclusive means 30% to 80%; inactive means below 30%; also: 0% is about no effect
Target sequence (Q8NER1 whole entry, looked up): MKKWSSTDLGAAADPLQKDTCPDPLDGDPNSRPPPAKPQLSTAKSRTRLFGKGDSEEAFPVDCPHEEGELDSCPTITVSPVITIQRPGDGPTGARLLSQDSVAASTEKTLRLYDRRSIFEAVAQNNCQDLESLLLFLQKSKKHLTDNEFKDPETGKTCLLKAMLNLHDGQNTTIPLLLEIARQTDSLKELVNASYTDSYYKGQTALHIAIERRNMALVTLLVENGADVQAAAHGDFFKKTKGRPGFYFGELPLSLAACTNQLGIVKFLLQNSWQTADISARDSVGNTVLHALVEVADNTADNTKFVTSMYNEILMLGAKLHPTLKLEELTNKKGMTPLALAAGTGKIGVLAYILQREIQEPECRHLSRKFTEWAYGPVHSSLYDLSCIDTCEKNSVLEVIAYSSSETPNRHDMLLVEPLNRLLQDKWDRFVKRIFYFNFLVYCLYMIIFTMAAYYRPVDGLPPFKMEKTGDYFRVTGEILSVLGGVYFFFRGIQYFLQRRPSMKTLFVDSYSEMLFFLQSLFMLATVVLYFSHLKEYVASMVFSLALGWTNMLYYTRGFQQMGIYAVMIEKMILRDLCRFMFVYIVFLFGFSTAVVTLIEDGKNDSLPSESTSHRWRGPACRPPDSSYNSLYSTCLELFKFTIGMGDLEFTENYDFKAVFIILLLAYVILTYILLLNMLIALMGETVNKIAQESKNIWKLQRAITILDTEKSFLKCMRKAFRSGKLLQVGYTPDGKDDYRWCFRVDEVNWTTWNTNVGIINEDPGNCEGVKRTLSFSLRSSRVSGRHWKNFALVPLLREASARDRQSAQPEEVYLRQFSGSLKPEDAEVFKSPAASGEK
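TRPV1-expressing cells were cultured overnight at 35.5C and loaded with Fluo-8 calcium dye for 40 to 90 min at room temperature. After a 10 s baseline, compound was added and calcium influx was read kinetically for 3 min (ex 480/em 520 nm).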
gsp antag = antagonists of gsp mutant (McCune-Albright syndrome); Potency, µM (titrated, usually from 76.9 µM), inactives show top-dose activity change, negative = inhibition, usual class: inhibitors; actives 0.4% (n = 340,000); gsp-mutant cells, cAMP HTRF, 30 min; control for the full effect not named in the record; AID 624288; active = falling curve of any shape with a large fitted effect; inconclusive = falling curve, mostly with a smaller effect; inactive = flat or rising curve; cell line not stated here;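 also: intracellular cAMP measured with PDE inhibitor Ro 20-1724 present during compound exposure; potency is read from the fitted curve at half-maximal effect; % is scaled to controls: 0 for no effect and ±100 for the full control effect; nearly all actives have a fitted effect of over 65% in size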
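Cells in G418 medium, seeded 16-24 h, 37C; buffer exchange to DPBS + 1 mM CaCl2, 0.5 mM MgCl2, 0.05% BSA; cpds in DMSO + […] (300 uM stock), 30 min 37C; HTRF cAMP detection.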
Sfp PPTase inh = Sfp phosphopantetheinyl transferase inhibition. Q9F4F7. Biochemical Sfp PPTase activity, qHTS. Potency, µM, for the others: max response, negative = inhibition, usual class: inhibitors. actives 3.5% (n = 310,000). AID 1490; active = well fitted inhibition curve with a large enough effect; inconclusive = small, poorly fitted or top-dose-only effect, or another doubt; inactive = no such curve, though single readings can be large or run the other way;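 also: the enzyme is Sfp with the accession as filed and its product quenches rhodamine fluorescence; potency is read from the fitted curve at half-maximal effect; 0% = enzyme reaction without inhibitor and -100% = no enzyme wells; top concentration of the series not given in the record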
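Fluorescence-quenching assay with 15 nM Sfp, 5 uM rhodamine-CoA and 12.5 uM BHQ-2-labelled ybbR peptide in pH 7.6 Hepes/MgCl2 buffer. Enzyme was pre-incubated with compound for 15 min at room temperature. Rate was taken from the 30-min fluorescence change (525/598 nm).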
Menin MLL FP FL = inhibitors of human menin-MLL interaction, wild-type MLL peptide | FP activity change, % at 61.4 µM | Fluorescence polarization, fluorescein-MLL peptide displacement from menin | 290,000 tested, under 10 active | AID 1766; inconclusive = falling polarisation curve, or a change in total fluorescence; inactive = total fluorescence flat and polarisation flat or rising; no compound was filed as active; the % refers to the polarisation; negative = inhibition;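 also: % of control where 0% means no effect; inhibitors lower the polarisation; unlabelled MLL peptide was the positive control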
ClpP mod = qHTS Assay for Activators of ClpP; actives 1.9% (n = 340,000); purified B. subtilis ClpP, FRET peptide cleavage, 20 min; Potency, µM (top dose mostly 57.5 µM), for inactives: at the highest dose activity change, negative = active; active = well fitted falling curve with a large enough effect; inconclusive = small, poorly fitted or top-dose-only effect; inactive = no such curve, though single readings can be large or run the other way; also: potency is read from the fitted curve at half-maximal effect; the source files actives as falling curves though it sought activators and does not explain the sign; nearly all actives have a fitted effect of over 65% in size; many hits overshoot -100%
Target sequence (P80244 whole entry, looked up): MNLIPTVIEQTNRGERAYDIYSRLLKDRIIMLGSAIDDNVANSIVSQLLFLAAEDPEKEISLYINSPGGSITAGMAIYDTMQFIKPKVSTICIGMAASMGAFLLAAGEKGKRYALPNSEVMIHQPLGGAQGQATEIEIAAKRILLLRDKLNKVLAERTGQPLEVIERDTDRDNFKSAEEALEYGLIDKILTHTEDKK
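ClpP 10 microg/mL final, pH 8 Tris/KCl buffer with BSA, glycerol, Tween-20; compound pinned in; FRET-FV substrate; RT 20 min; Ex320/Em430; ΔFRET vs ADEP 5.8 microM, DMSO, no enzyme.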
CtBP-E1A inh = CtBP/E1A binding inhibition | activity change, % (no concentration beside the values) | actives 0.49% (n = 340,000) | AlphaScreen GST-E1A/His-CtBP binding, 1536-well; active compounds read low; control for the full effect not named in the record; in the data active means activity change below about -65%; inconclusive means about -30% to -65%; inactive means above about -30%; also: % is scaled to controls: 0 for no effect and ±100 for the full control effect
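GST-E1A and His-tagged CtBP (125 nM each as 5X stock) were preincubated with pin-transferred compound for 2 h at 37 °C in the dark, then glutathione donor and nickel acceptor beads were added for 1 h before AlphaScreen reading.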
gsp agonist = activates gsp, the McCune-Albright syndrome mutation; Potency, µM (highest dose often 76.9 µM), inactives show top-dose activation (cAMP increase), most hits filed as activators; gsp mutant cells, cAMP HTRF, 30 min; control for the full effect not named in the record; actives 0.13% (n = 340,000); active = well fitted activation curve with a large enough effect; inconclusive = small, poorly fitted or top-dose-only effect, or another doubt; inactive = no such curve, though single readings can be large or run the other way; cell line not stated here;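 also: phosphodiesterase inhibitor Ro 20-1724 added with compounds to block cAMP breakdown; potency is read from the fitted curve at half-maximal effect; nearly all actives have a fitted effect of over 60% in size; about a fifth of the inactives were tested at one dose only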
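Cells stably selected in G418 were plated at 2000/well, grown 16-24 hr, then given compounds in DMSO with the PDE inhibitor […] (300 uM solution added) for 30 min at 37C; cAMP was read by HTRF.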
An asterisk follows results filed as active; ? = inconclusive; · = not tested or not shown; & = joins results of further samples; [ ] = another dose, or the depositor's remark. Random draw from the library; 5.3% or so of the library scored in one or more.

A first look, 2 compounds:
smiles	TRPV1 potentiator	gsp antag	Sfp PPTase inh	Menin MLL FP FL	ClpP mod	CtBP-E1A inh	gsp agonist
COc1ccc(N(C)S(=O)(=O)c2ccc(Cl)c(C(=O)NCC(C)(C)N3CCOCC3)c2)cc1	-1	-15%	·	·	2.4%	5	-1%
Cc1ccc(Cn2ccc(NC(=O)c3cc(CC(C)C)on3)n2)cc1	29	1%	2%	6.3	0.2%	7	-37%[inhibitor]

This part in full, previewed entries included:
smiles	TRPV1 potentiator	gsp antag	Sfp PPTase inh	Menin MLL FP FL	ClpP mod	CtBP-E1A inh	gsp agonist
COc1ccc(N(C)S(=O)(=O)c2ccc(Cl)c(C(=O)NCC(C)(C)N3CCOCC3)c2)cc1	-1	-15%	·	·	2.4%	5	-1%
Cc1ccc(Cn2ccc(NC(=O)c3cc(CC(C)C)on3)n2)cc1	29	1%	2%	6.3	0.2%	7	-37%[inhibitor]
C[C@@H]1CNC(=O)c2c(C(=O)NCC(=O)OC(C)(C)C)ncn21	·	·	·	·	0.3%	-2	10%
O=C(Nc1cccc(S(=O)(=O)N2CCOCC2)c1)c1ccccn1	1	7%	5%	43[activator]	1.9%	3	14%
Cc1nonc1C(=O)N/N=C/c1cccc(O)c1	0	11%	-2%	3.0	-3.9%	-16	-18%
Cn1c(SCC(=O)N2CCCC2)nc2ccccc2c1=O	13	-1%	7%	-1.5	-1.3%	5	11%
COC(=O)N/N=C/c1cccs1	0	5%	15%	-5.4	0.8%	0	-34%[inhibitor]
CC(C)C[C@@H](CNCC(=O)[C@H](C)NC(=O)c1[nH]cnc1C(=O)N[C@@H](C)CN)NC(=O)c1nc[nH]c1C(=O)N[C@@H](CC(=O)O)C(=O)O	·	6%	·	·	0.9%	-14	·
CC(=O)c1cn(C(=O)c2ccc(Cl)cc2)c2ccccc12	-1	1%	12%	-0.2	·	3	23%
COc1cc(/C=C/C2=NC(=O)C(C)(C)O2)ccc1O	1	6%	6%	2.5	5.7%	8	-33%[inhibitor]
Nc1ccc(-c2cnc3ccccc3n2)cc1	·	-3%	·	·	·	5	-5%[15.4 µM]
COc1ccc2c3c(cccc13)OC2=O	-2	15%	11%	8.1	·	1	24%
CCOC(=O)c1nn(-c2ccc(F)cc2)c(=O)cc1OCC(=O)Nc1ccc(F)c(F)c1	-14	26%	·	·	·	5	101%[15.4 µM]
COc1cc(/C=N/NC(=O)Cc2csc(C)n2)ccc1OCC(C)C	-3	-7%	11%	1.6	-4.8%	5	-27%
CC(=O)Nc1ccc(S(=O)(=O)Nc2nc3c(s2)CCCC3)cc1	11	1%	-4%	0.7	0.1%	0	-1%
CC(=O)Nc1ccc(S(=O)(=O)N(Cc2ccco2)CC2CCCO2)cc1 (stereo not drawn)	-3	6%	-7%	1.6	-1.5%	1	-2%
CCC1=C2CC[C@H]3C(=O)N(c4ccccc4)C(=O)[C@H]3[C@H]2[C@@]2(C)C(=NCC3CC3)OC(=O)N2C1=O	4	8%	17%&6%	-5.0&-5.4	1.5%	5	·
CCOc1ccc(/C=N/NC(=O)CC(=O)Nc2ccc(Cl)c(Cl)c2)cc1	9	5%	-16%	4.4	-0.8%	11	4%
CCc1ccc(CNC(=O)CCn2nc(C)c3c(C)n(-c4ccccc4)nc3c2=O)cc1	13	-24%	-6%	·	-1.7%&-2.3%	0	-3%
COc1ccccc1C(=O)NC(=O)COC(=O)CCOc1ccc(C)cc1	4	-1%	·	·	-15%	8	-17%
Cc1ccc(S(=O)(=O)N/N=C/c2cccc(OC3CSC3)c2)cc1	5	-7%	-2%	4.1	0.7%	-14	0%
OCC1(Cc2ccccc2F)CCCN(CC2CCCCC2)C1 (stereo not drawn)	-25	3%	14%	12	·	0	-33%[inhibitor]
CN(CC(=O)NCCc1ccc(S(N)(=O)=O)cc1)CC(=O)Nc1cccc(F)c1	4	6%	·	·	-4.8%	-2	9%
COc1ccc(NS(=O)(=O)c2cc(NC(=O)CNC(=O)c3ccc(C)s3)ccc2Cl)cc1	-2	-31%	3%	6.4	1.2%	-19	15%[15.4 µM]
Cc1cc(C)c2[nH]c(=O)c(=O)[nH]c2c1	3	17%	7%	-1.1	?	-8	-15%
O=C(Nc1nnc(SCc2ccccc2)s1)C1=COCCO1	-9	-3%	·	·	-3.7%	-1	-8%
Cc1cc(C)c(/C=N/NC(N)=O)c(C)c1/C=N/NC(N)=O	1	-2%	5%	2.6	-2.2%	-4	-12%
CC1=CCCC(C)(C)C1/C=C/C(C)=N/NC(=O)c1ccncc1 (stereo not drawn)	-8	2%	6%	0.1	·	0	-17%[15.4 µM]
FC(F)(F)c1cc(C(F)(F)F)c2ccc(Oc3ccccc3)nc2n1	19	-4%	15%	6.3	-2.9%	-9	0%
O=C(COc1ccccc1)Nc1ccc(OC(F)(F)C(F)F)c(NC(=O)COc2ccccc2)c1	18	15%	15%	2.5	1.6%	0	24%
O=C(NCC(c1ccco1)N1CCc2ccccc2C1)c1ccccc1Br (stereo not drawn)	-16	-4%	·	·	·	-1	20%[15.4 µM]
CCOC(=O)C1=CN(Cc2ccco2)S(=O)(=O)NC1c1cccc(OC)c1 (stereo not drawn)	·	7%	·	·	0.4%	0	·
c1csc(-c2ccn[nH]2)c1	7	10%	11%	0.2	-0.7%	·	-102%[inhibitor]
O=C(/C=C/c1ccccc1Cl)N1CCOCC1	-4	6%	10%	-2.5	-0.4%	6	-12%
CCCCn1c(CCNC(=O)CCC)nc2ccccc21	-9	2%	15%	-0.5	-1.3%	1	5%
O=C(/C=N/NC(=O)c1ccc(Cl)cc1Cl)c1ccccc1	9	-22%	14%	-1.2	-0.4%	-20	-44%[inhibitor]
CCOC(=O)c1cnc2cc(Cl)c(OC)cc2c1NCC1CCCO1 (stereo not drawn)	-20	1%	-4%	1.5	?	6	20%
CCOC(=O)C1CCN(C(=O)COC(=O)c2ccc([N+](=O)[O-])o2)CC1	1	20%	·	·	0.7%	-6	20%
Cc1ccc(C(C)C)c(OCC(=O)N/N=C/C2CCCCC2)c1	-9	-1%	6%	-6.8	·	-4	-22%[15.4 µM]
O=C(CNCc1ccco1)Nc1ccc(Oc2ccccc2)cc1	13	-1%	?	4.5	1.1%	·	-3%
CC(=O)c1ccc(N2CCN(C(=O)CNC(=O)c3ccc(Br)o3)CC2)cc1	·	·	·	·	-4.6%	2	-6%
O=C(Oc1c(Br)cc(C(=S)N2CCOCC2)cc1Br)c1ccc(Cl)cc1	17	?	-69%	-0.9	-0.9%	-17	-26%
COc1cc(C(=O)Nc2cccc(NC(=O)c3cccs3)c2)cc(OC)c1OC	18	?	2%	0.0	-1.5%	·	-18%
CCOC(=O)NC1(NC(C)C)Oc2ccccc2O1	6	15%	?	6.2	0.6%	-1	-8%
CCC[n+]1c(C)sc2c3c(ccc21)CCCC3	0	-3%	-4%	-0.2	·	0	7%[15.4 µM]
Cc1nc2ccccc2c2c(N)cccc12	·	14%	·	·	·	9	-2%
CCOc1ncccc1C(=O)Nc1ccc2nc(C)sc2c1	3	-8%	4%	1.6	·	-7	24%[15.4 µM]
O=C(Nc1ccc(Cl)cc1)C(Cl)C(=O)c1ccccc1 (stereo not drawn)	-4	16%	28µM*	1.1	1.4%	-3	-15%
O=C(c1cc([N+](=O)[O-])cc([N+](=O)[O-])c1)N(c1ccccn1)c1ccccn1	0	13%	3%	-0.4	-1.5%	1	27%
COc1ccc(C2=NN(C)C(=NCc3ccccc3)SC2)cc1	14	?	1%	1.7	2.2%	6	-18%
NS(=O)(=O)c1cccc(NC(=O)CN2CCc3ccccc32)c1	4	-2%	13%	-7.0	-1.2%	0	2%
CCCC(=O)Nc1nnc(SCC(=O)N2CCCCC2)s1	-4	14%	-11%	-5.2	·	-8	-7%[15.4 µM]
COc1ccc(C2C(C#N)=C(N)N(c3sc4c(c3C#N)CCCC4)C3=C2C(=O)CC(C)(C)C3)cc1 (stereo not drawn)	-5	-7%	8%	?	-4.9%	-11	-50%[inhibitor]
O=C(COc1ccc(Br)cc1)N/N=C1/SCC(=O)N1Cc1ccco1	-2	-9%	-2%	0.0	·	0	6%[15.4 µM]
COC(=O)c1cc(C(=O)Nc2nc3ccccc3[nH]2)cc([N+](=O)[O-])c1	5	-16%	3%	8.4	·	-3	-4%[15.4 µM]
Cc1ccccc1OCC(=O)Nn1c(COc2ccccc2)nc2ccccc2c1=O	-12	-19%	3%	3.1	-0.7%	-11	13%

Ordered by the number under Sfp PPTase inh (rising): 3 from the list above.
smiles	Sfp PPTase inh
O=C(c1cc([N+](=O)[O-])cc([N+](=O)[O-])c1)N(c1ccccn1)c1ccccn1	3%
COc1ccc(C2C(C#N)=C(N)N(c3sc4c(c3C#N)CCCC4)C3=C2C(=O)CC(C)(C)C3)cc1 (stereo not drawn)	8%
NS(=O)(=O)c1cccc(NC(=O)CN2CCc3ccccc32)c1	13%

Screening results from PubChem BioAssay.
